# Mtb growth: Mycobacterium tuberculosis H37Rv growth inhibition, cell based, confirmatory dose response (AID 1949); M. tuberculosis H37Rv growth inhibition; most inactive calls were filed without a number and no value below 0 was filed; actives 1.6% (n = 100,000); inhibition, % at 10 µg/mL, or IC50 in µg/mL where a hit was titrated;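 active = confirmed in a dose series; inconclusive = about 50% or more but not retested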;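 note: bacteria grown 7 days with compound before Alamar blue readout; 0% = untreated bacteria and 100% = reference antibiotic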
# * hit, by the source's call; i = inactive; ? = inconclusive. Some of the compounds tested; the hit share may differ from the screen's.
SMILES	Mtb growth
N#CC1=C(N)Oc2nc[nH]c(=O)c2C1c1ccsc1 (stereo not drawn)	i
O=S(=O)(NC(=S)NC1CCCCC1)c1ccc(F)cc1	i
COc1ccccc1OCCCn1cnc2ccccc21	i
O=C(COc1ccc(C(=O)NCCc2ccccc2)cc1)Nc1ccccc1	16.2%
Cc1ccc(OCC(=O)Nc2cccc(Cl)c2C)cc1	i
COC(=O)Cc1c(C)c2cc(Cl)c(OCc3ccc(F)cc3Cl)cc2oc1=O	i
CCOC(=O)Cn1cc(C#N)c2cccc(CC)c21	0.87µg/mL*
O=C(c1ccc([N+](=O)[O-])cc1)N1CCN(Cc2ccc3ccccc3c2)CC1	5.6%
CCCCC(=O)Nc1ccc(NC(=S)NC(=O)COc2ccc([N+](=O)[O-])cc2)cc1OC	i
O=c1nc(/C=C/c2cn[nH]c2-c2ccccc2)cc(C(F)(F)F)[nH]1	i
COc1ccc(-c2nc3ccccc3c(=O)n2-c2cccnc2)cc1	i
CCOc1ccc(NC(=O)c2ccc(-c3ccc(Cl)cc3Cl)o2)cc1	4.0%
Cc1cccc(NC(c2ccsc2)c2ccc3ccc(C)nc3c2O)n1 (stereo not drawn)	i
CC(C)CCn1cnc2c1c(=O)n(C)c(=O)n2C	i
CC(=O)N(C)c1ccc(NC(=S)Nc2ccc(C(C)C)cc2)cc1	i
O=C(N1CCCN(C(=O)C(Cl)(Cl)Cl)CC1)C(Cl)(Cl)Cl	i
COc1ccc(OC)c(NC(=O)c2ccco2)c1	i
CSCCc1nc(SCC(=O)Nc2nnc(C)s2)[nH]c1C	i
CC1CCCN(C(=O)Cc2ccc(F)cc2)C1 (stereo not drawn)	i
COc1ccc(-c2nc3ccccc3s2)cc1NC(=O)c1c(F)c(F)c(F)c(F)c1F	i
CCn1cc(Br)c(C(=O)Nc2ccc(C)cc2C)n1	i
O=c1cc(CSc2nc3ccccc3s2)[nH][nH]1	i
CC(C)(C)SCCNC(=O)c1ccc(NS(C)(=O)=O)cc1	i
Cc1ccc(-c2nn(CC(=O)NCc3cccnc3)c(=O)c3ccccc23)cc1	i
Cn1cc(I)c(C(=O)NNC(=S)NCC2CCCO2)n1 (stereo not drawn)	0.2%

# Nothing new here: an excerpt of the list.
SMILES	Mtb growth
CSCCc1nc(SCC(=O)Nc2nnc(C)s2)[nH]c1C	i
CC1CCCN(C(=O)Cc2ccc(F)cc2)C1 (stereo not drawn)	i

# The listing continues:
SMILES	Mtb growth
COc1ccc(-c2cc3nc(Cc4ccccc4)cc(=O)n3[nH]2)cc1	1.3%
CCOC(=O)c1cc(NC(=O)c2sc3nc(C)cc(COC)c3c2N)ccc1Cl	i
CCc1ccc2c(C)nc(NC3=NC(C)(C)C=C(C)N3)nc2c1	?
CC(=O)c1cccc(NC(=O)Nc2cnn(Cc3ccc(Cl)cc3Cl)c2)c1	6.6%
CSc1nnc(-c2nnc(SC)n2-c2ccccc2)n1-c1ccccc1	i
CN1CCN(C(=O)CC23CC4CC(C2)CC(c2ccccc2)(C4)C3)CC1	i
CC(C)(C)CC(=O)O/N=C(\N)c1cccnc1	i
O=c1[nH]c(N2CCOCC2)nc2ncn(Cc3ccccc3)c12	2.2%
CC(C)(C)NC(=O)COc1ccc(CNCCc2ccccc2)cc1	i
COc1ccc(NC(=S)Nc2ccccc2C)cc1	i
Cc1cc(NC(=O)CCCN2C(=O)c3cccc4cccc(c34)C2=O)n(-c2ccccc2)n1	i
Cc1cc(Oc2nc([N+](=O)[O-])nn2C)ccc1Cl	5.88µg/mL*
COc1ccc(NC(=O)Nc2ccccc2)cc1OC	i
COC(=O)c1ccc(Cl)c(-c2ccc(C=O)o2)c1	i
COc1ccc(-c2csc(NC(=S)NC(=O)c3ccccc3OC)n2)cc1OC	i
CCOc1ccc(C(=O)NNC(N)=S)cc1	i
COc1ccc(CN2CCC(C(=O)NCc3ccc(C)cc3)CC2)c(OC)c1	i
Cc1ccc(Cc2nc(-c3ccc(Cl)cc3)no2)cc1	0.3%
Cc1ccc2[nH]cc(CCNC(=O)c3ccco3)c2c1	4.6%
CCCCS(=O)(=O)c1sc2nc3c(cc2c1N)CCCC3	1.3%
COc1ccc(NC(=O)c2cccc(S(=O)(=O)N3CCCCC3)c2)c([N+](=O)[O-])c1	i
CC1CCc2c(sc(NC(=O)CC34CC5CC(CC(C5)C3)C4)c2C(N)=O)C1 (stereo not drawn)	8.8%
COC(C(=O)NCc1ccccc1C)c1ccccc1 (stereo not drawn)	i
Cc1cc(NC(=O)c2cccs2)ccc1NC(=O)c1ccco1	i
CC1CCc2c(sc3ncn(CCO)c(=O)c23)C1 (stereo not drawn)	i
CCN(CC)C(=O)Nc1cc(F)cc(F)c1	i
COc1cc(C(=S)N2CCCC2)ccc1OC(=O)c1ccccc1Cl	i
CCOc1ccccc1Nc1nnc(-c2cc3ccc(N(CC)CC)cc3oc2=O)s1	5.6%
O=C(Nc1cc(Cl)ccc1Cl)c1cc([N+](=O)[O-])ccc1N1CCCCC1	i
CCOC(=O)c1c(C)n(Cc2ccco2)c2ccc(OC)cc12	i
COc1ccc(S(=O)(=O)Nc2cc(Br)c(O)c3ccccc23)cc1[N+](=O)[O-]	47.8%
CC(C)c1nnc(N2C(=O)c3oc4ccccc4c(=O)c3C2c2ccco2)s1 (stereo not drawn)	i
CCCOc1ccc(Br)cc1C1NC(=S)NC(C)=C1C(=O)Nc1ccc(C)cc1 (stereo not drawn)	0.2%
COc1ccc(Br)cc1C(=O)NC(=S)Nc1ccccc1N1CCCCC1	30.8%
CCOc1cc(CNCCc2ccc(OC)c(OC)c2)cc(Br)c1OCC(N)=O	i
Cc1cccc(C(=O)NC(=S)Nc2ccc(Nc3ccccc3)cc2)c1	30.8%
O=C(COc1ccc([N+](=O)[O-])cc1)Nc1ccccc1N1CCCC1	i
COc1cc2c(cc1OC)C(c1cc(Br)c(OC)c(OC)c1)CC(=O)N2 (stereo not drawn)	i
CCn1c(COc2ccccc2OC)nc2ccccc21	i
CS(=O)(=O)c1ccc2nc(NC(=O)c3ccncc3)sc2c1	i
Cn1c(=O)c2c(ncn2CC(COCc2ccccc2Cl)OCc2ccccc2Cl)n(C)c1=O (stereo not drawn)	i
O=C(NC1CCC(c2ccccc2)CC1)c1ccco1 (stereo not drawn)	2.2%
COc1ccc(-c2nnc3c4cnn(Cc5ccccc5)c4ncn23)cc1	2.7%
O=C(CSc1ncccn1)Nc1ccc(Cl)cc1Cl	i
Cc1cc(OCC(=O)NC(c2ccccc2)c2ccccc2)ccc1C(C)C	4.5%
O=C(NCc1ccccc1)c1ccccc1-c1nc2ccccc2[nH]1	2.4%
CCOc1ccc(S(=O)(=O)Nc2ccc(Cl)cc2C)cc1	i
Cc1c(Cl)cccc1NC(=O)c1ccc(OCC(=O)NCc2ccccc2)cc1	i
COc1ccc(N2CCN(C(=O)COc3cccc4ccccc34)CC2)cc1	28.9%
Cc1ccc(NC(=S)NCCc2ccc(F)cc2)c(C)c1	i

# Carrying on:
SMILES	Mtb growth
CCCCC(=O)Nc1ccc2oc(-c3ccccc3C)nc2c1	37.1%
Cc1nnc2sc(-c3ccc(NC(=O)c4ccc(OCc5ccccc5)cc4)cc3)nn12	i
COC(=O)c1cc2c(=O)n3cc(C)ccc3nc2n(Cc2ccco2)c1=N	i
COc1ccccc1-n1cnc2cc(NCc3cccs3)ccc21	21.2%
Cc1ccc(C(C)C)c(OCC(C)CNCC2CCCO2)c1 (stereo not drawn)	i
CN(CC(=O)Nc1ccc(F)c(Cl)c1)S(=O)(=O)c1ccc2ccccc2c1	i
O=C(Nc1ncn[nH]1)c1ccccc1O	i
CNCCCOc1cccc(C(F)(F)F)c1	i
CCOc1cc(C)ccc1OCc1nnc(SCC(=O)NCc2ccccc2)n1-c1ccccc1	i
COc1ccc(S(=O)(=O)N2CCN(C)CC2)cc1N(C)S(=O)(=O)c1ccccc1	1.7%
Clc1ccc(OCCn2ccnc2)cc1Cl	7.53µg/mL*
CCOC(=O)c1ccc(NC(=O)NNC(=O)c2cccc(F)c2)cc1	i
Cc1ccc(OCC(=O)Nc2ccc(C)c(C)c2)c(C)c1	5.4%
COC(=O)c1ccc(COc2ccc3ccccc3c2)cc1	4.6%
O=C(Nc1ccc(F)c(Cl)c1)C1CCN(S(=O)(=O)c2ccc(Br)cc2)CC1	3.6%
CC(=O)Oc1cccc(C(=O)Nc2ccc(F)cc2F)c1	i
CCCOc1ccc(C(=O)NCCO)cc1	i
COc1ccc(OCCCC(=O)Nc2ccc3c(c2)OCCO3)cc1	i
COc1ccc(-c2cc(C(=O)Nc3cc(C)on3)c3ccccc3n2)cc1OC	25.9%
COc1ccc(OCC(=O)N=Nc2c(O)n(C)c3ccccc23)cc1	i
COc1ccc(NC(=O)c2ccc(N(Cc3ccc(C)cc3)S(C)(=O)=O)cc2)cc1	i
O=C(Nc1cc(C(F)(F)F)ccc1Oc1ccccc1-c1ccccc1)c1cccnc1	i
CCCCN1C(=O)C2C3C=CC(C2C1=O)C1C2C(=O)N(CCCC)C(=O)C2C31 (stereo not drawn)	i
Cc1ccc(S(=O)(=O)Nc2ccc(Br)cc2)cc1C	4.3%
O=C(Nc1ccc(Br)cn1)c1ccc(-c2ccccc2)cc1	i
CCOC(=O)N1CCN(C(=O)c2cnn(-c3ccccc3)c2NC(=O)c2ccccc2F)CC1	i
CCN1CCN(CC(=O)n2c3c(c4ccccc42)CC(C)CC3)CC1 (stereo not drawn)	6.4%
Cc1ccc(C)c(COc2cc3oc(=O)cc(C)c3cc2Cl)c1	0.3%
COc1ccc(OC)c(NC(=O)CC2Nc3cc(C)c(C)cc3NC2=O)c1 (stereo not drawn)	4.3%
COc1ccc(CN2C(=O)C(O)(CC(=O)c3ccc(Cl)cc3)c3ccccc32)cc1OC (stereo not drawn)	i
CC(C)C(=O)N1CCN(c2ccccc2NC(=O)c2cccc(F)c2)CC1	i
CCCc1cc(C(=O)NNC(=O)Nc2ccc(OC)cc2OC)cs1	i
CCCn1c(COc2ccc(C)cc2)nc2ccccc21	36.1%
COc1ccc(S(=O)(=O)N(CC(=O)NCc2ccc(Cl)cc2)C2CCCCC2)cc1OC	i
Cc1cnc(NC(=O)CSc2nnc(Cc3ccccc3)n2C)s1	2.1%
COc1cc(Cl)c(S(=O)(=O)NCc2ccccc2)cc1Cl	i
O=C1Nc2ccc(S(=O)(=O)Nc3ccc(N4CCCCC4)cc3)c3cccc1c23	i
CN1C(=O)c2ccc(NC(=O)c3cccc4c(Br)cccc34)cc2C1=O	i
O=C(CC1SC2=NCCN2C1=O)Nc1ccc(Cl)cc1 (stereo not drawn)	i
CCCc1cc2c(=O)c(-c3ccc4c(c3)OCCO4)c(C)oc2cc1OC(C)=O	i
CCOc1ccc(NC(=O)c2ccc(CN(c3ccc(C)c(C)c3)S(C)(=O)=O)cc2)cc1	i
CC(C)(Oc1ccc(C2CCCCC2)cc1)C(=O)O	i
CCN1CCN(CCn2c(=S)[nH]c3ccccc3c2=O)CC1	i
Cc1nc2cc(NC(=O)Nc3ccc(Br)cc3)ccc2n1C	1.4%
CCC(C)NS(=O)(=O)c1ccc(OCC(=O)NCc2ccc(OC)cc2)cc1 (stereo not drawn)	i
O=C(CCC(=O)Nc1cccnc1)Nc1cccnc1	i
Cc1cccc(NC(=O)COc2ccc(Cl)cc2Br)n1	i
CCOC(=O)c1ccc(NC(=O)Nc2cnn(CC)c2C(N)=O)cc1	i
COc1ccc(S(=O)(=O)N(CC(=O)Nc2cccc3ccccc23)c2cccc(Cl)c2)cc1	2.4%
NC(=O)c1cc(Cc2ccccc2)sc1NC(=O)C1CCCO1 (stereo not drawn)	i

# Reprinted from the part before: seven entries, then new ones.
SMILES	Mtb growth
Cc1nc2cc(NC(=O)Nc3ccc(Br)cc3)ccc2n1C	1.4%
CCC(C)NS(=O)(=O)c1ccc(OCC(=O)NCc2ccc(OC)cc2)cc1 (stereo not drawn)	i
O=C(CCC(=O)Nc1cccnc1)Nc1cccnc1	i
Cc1cccc(NC(=O)COc2ccc(Cl)cc2Br)n1	i
CCOC(=O)c1ccc(NC(=O)Nc2cnn(CC)c2C(N)=O)cc1	i
COc1ccc(S(=O)(=O)N(CC(=O)Nc2cccc3ccccc23)c2cccc(Cl)c2)cc1	2.4%
NC(=O)c1cc(Cc2ccccc2)sc1NC(=O)C1CCCO1 (stereo not drawn)	i
COc1ccc(Cc2nn3c(-c4ccncc4)nnc3s2)cc1	i
Cc1cc2ncn(C3CC(=O)N(Cc4ccccc4)C3=O)c2cc1C (stereo not drawn)	i
CCc1cc2c(=O)n(CCc3ccccc3)cnc2s1	i
COc1cccc2c1OCc1sc3[nH]c(=S)[nH]c(=O)c3c1-2	i
S=C(Nc1ccc(Nc2ccccc2)cc1)NC1CCCCCC1	?
CCOC(=O)c1ccc2[nH]c(C)cc(=O)c2c1	i
OCCNC(=S)NC1CCCCC1	0.3%
CCc1c(C(=O)Nc2cnn(Cc3ccc(F)cc3)c2)csc1C	3.7%
CCc1nc2sc(C)c(C)c2c(=O)n1N	i
COCCNc1nc2c(c(=O)n(C)c(=O)n2C)n1Cc1c(F)cccc1Cl	0.9%
OC(COc1ccc2ccccc2c1)CN1CCCN(CC(O)COc2ccc3ccccc3c2)CC1 (stereo not drawn)	0.73µg/mL*
O=C(COc1ccccc1Cl)c1ccc(F)cc1	4.6%
COc1ccc(C(=O)O)cc1NC(=S)NC(=O)c1ccccc1C	0.3%
CCC(C)NCCCOc1cc(Cl)ccc1Cl (stereo not drawn)	i
COc1ccc(OCC(=O)Nc2cc(C)c(I)cc2C)cc1	i

# High-throughput results from PubChem BioAssay.
